# Source: PubChem BioAssay
# SARS PLP yeast: inhibitors of SARS-CoV papain-like protease in yeast; S. cerevisiae expressing SARS-CoV PLpro, growth rescue; control for the full effect not named in the record; Potency, µM (highest dose often 32.9 µM), for inactives: at the top dose activity, positive = growth rescue; hit rate 0.19% among 330,000; AID 485353; also: 0% is about no effect; nearly all actives have a fitted effect of over 55% in size; growth read by luminescence after 48 h
# Cruzain Triton: blocks cruzain activity in presence of Triton detergent. purified cruzain, Z-FR-AMC fluorescence, 0.01% Triton. hit rate 0.43% among 200,000. P25779. Potency, µM, inactives show max response, negative = inhibition, hits mostly inhibitors; active = well fitted curve in the direction sought with a large enough effect; inconclusive = small, poorly fitted or top-dose-only effect, or another doubt; inactive = no such curve, though single readings can be large; an effect the other way counts as inactive or inconclusive;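 also: plate controls were neutral wells for no effect and buffer without enzyme for full effect; nearly all actives have a fitted effect of over 40% in size; top concentration of the series not given in the record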
# Target sequence (P25779 123-467 limits assumed): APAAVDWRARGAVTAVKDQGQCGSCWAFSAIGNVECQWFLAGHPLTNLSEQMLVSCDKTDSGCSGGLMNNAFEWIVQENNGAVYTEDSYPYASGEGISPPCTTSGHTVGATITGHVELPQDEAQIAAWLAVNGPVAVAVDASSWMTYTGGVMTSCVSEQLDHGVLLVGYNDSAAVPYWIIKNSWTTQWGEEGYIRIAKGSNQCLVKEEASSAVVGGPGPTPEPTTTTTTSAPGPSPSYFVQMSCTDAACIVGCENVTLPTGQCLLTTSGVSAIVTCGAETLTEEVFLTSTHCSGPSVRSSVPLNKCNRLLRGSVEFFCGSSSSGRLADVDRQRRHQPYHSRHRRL
#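 Steps: dispense cruzain (1.5 nM final) in acetate buffer pH 5.5 with DTT and 0.01% Triton X-100; pin-transfer compounds; incubate 15 min RT; add Z-FR-AMC (2 uM final); read fluorescence every 30 s, using the 60 s intensity change.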
# NS1 inh: influenza NS1 inhibition; S. cerevisiae slowed by influenza A NS1, growth recovery by OD600; Potency, µM (doses to about 46.1 µM), for the others: at the top dose activity, positive = more growth; hit rate 0.4% among 270,000; also: actives are rising curves; nearly all actives have a fitted effect of over 50% in size
#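 Growth recovery, yeast-based: influenza A NS1 expressed in S. cerevisiae causes slow growth, and suppressors are detected by OD600. The parent strain without NS1 is used as positive control.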
# LASV entry inh: blocks Lassa virus binding to or entry into cells | Lassa virus pseudotype entry inhibition, cell reporter; control for the full effect not named in the record | hit rate 1.2% among 300,000 | Potency, µM (doses to about 37.9 µM), without a hit: at the top dose activity change, negative = inhibition, most hits filed as inhibitors | AID 540256; active means well fitted inhibition curve with a large enough effect; inconclusive means small, poorly fitted or top-dose-only effect, or effect the other way; inactive means flat fitted curve, though single readings scatter; tested in HEK293 cells; also: % is scaled to controls: 0 for no effect and ±100 for the full control effect; nearly all actives have a fitted effect of over 50% in size; luciferase read-out
# Cruzain noTriton: inhibitors of Trypanosoma cruzi cruzain without detergent | hit rate 2.3% among 200,000 | purified cruzain, Z-FR-AMC fluorescence, no detergent | P25779 | Potency, µM, inactives show max response, negative = inhibition, hits mostly inhibitors; active = well fitted curve in the direction sought with a large enough effect; inconclusive = small, poorly fitted or top-dose-only effect, or another doubt; inactive = no such curve, though single readings can be large; an effect the other way counts as inactive or inconclusive;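 also: plate controls were enzyme without inhibitor for no effect and buffer without enzyme for full effect; nearly all actives have a fitted effect of over 40% in size; top concentration of the series not given in the record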
#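 Detergent-free condition (0.00005% Triton X-100) in acetate buffer pH 5.5 with DTT. 1.5 nM enzyme and compound were pre-mixed 15 min, then 2 uM Z-FR-AMC substrate added; reaction progress from fluorescence change between first and third reads (60 s).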
# MARV entry inh: Marburg virus entry inhibition. Marburg virus pseudotyped entry inhibition, cell reporter; control for the full effect not named in the record; about a third of the inactives were read at about 46 µM. Potency, µM (highest dose often 37.8 µM), for the others: at the highest dose activity change, negative = inhibition, most hits filed as inhibitors. hit rate 1.8% among 300,000. AID 540276; active = well fitted inhibition curve with a large enough effect; inconclusive = small, poorly fitted or top-dose-only effect, or effect the other way; inactive = flat fitted curve, though single readings scatter; tested in HEK293 cells; about a fifth of its hits are not listed in these tables; also: % is scaled to controls: 0 for no effect and ±100 for the full control effect; luciferase read-out
# RE007 growth inh: less growth of the S. pombe RE007 Vpr strain; Potency, µM (highest dose often 92.2 µM), inactives show at the top dose activity change, negative = less growth; AID 651644; hit rate 0.21% among 360,000; S. pombe RE007 Vpr strain, BacTiter-Glo ATP luminescence, 24 h; control for the full effect not named in the record; active = well fitted falling curve with a large enough effect; inconclusive = small, poorly fitted or top-dose-only effect; inactive = no such curve, though single readings can be large or run the other way;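 also: % is scaled to controls: 0 for no effect and ±100 for the full control effect; nearly all actives have a fitted effect of over 50% in size; the assay follows cell death caused by Vpr and the record does not say whether a fall means rescue or toxicity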
#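 Fission yeast strain RE007, carrying one chromosomally integrated HIV-1 vpr copy, was seeded at OD 0.01 in PMG+AL medium with 23 nL pinned compound. After 24 h at 30 °C and 99% humidity, viability was read by BacTiter-Glo luminescence.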
# 2A StopGo: lowers the luciferase signal of an FMDV 2A StopGo reporter; hit rate 1.2% among 410,000; Potency, µM (series often up to 57.9 µM), without a hit: at the highest dose signal change, negative = less light; AID 1159524; human cells with a luciferase reporter of 2A StopGo recoding; control for the full effect not named in the record; active = well fitted falling curve with a large enough effect; inconclusive = small, poorly fitted or top-dose-only effect; inactive = no such curve, though single readings can be large or run the other way; tested in HEK293T cells; also: % is scaled to controls: 0 for no effect and ±100 for the full control effect; nearly all actives have a fitted effect of over 45% in size; luciferase light after 4 h
# * marks the source's active call; other numbers are inactive results; ? = inconclusive; . = not tested or not shown; [ ] = another dose, or the depositor's remark. Unless noted, calls follow the shape of the dose curve; as a rule, active means well fitted rising curve with a large enough effect; inconclusive means small, poorly fitted or top-dose-only effect; inactive means no such curve, though single readings can be large or run the other way. Potency is read from the fitted curve at half-maximal effect.
SMILES,SARS PLP yeast,Cruzain Triton,NS1 inh,LASV entry inh,Cruzain noTriton,MARV entry inh,RE007 growth inh,2A StopGo
Cc1ccc(NC(=O)c2ccc3ccccc3n2)cc1S(=O)(=O)N(C)C,15.6%,.,.,?,.,?,28.1%,0.1%
O=C(COC(=O)CCSc1ccc(Cl)cc1)NCc1ccccc1Cl,9.1%,-13.2%,-23.4%,13.8%,-20.6%,6.1%,7.9%,1.9%
O=C(Nc1cccc(-c2nc3ncccc3o2)c1)c1ccc2c(c1)OCO2,.,.,.,3.6%,.,11.5%[46.1 µM],-5.5%,-3.0%
COc1ccc(NCc2nnc(SCC(=O)N3CCCc4ccccc43)o2)cc1,2.3%,7.3%,7.3%,-1.5%,-2.4%,?,12.6%,19.3%
CC1CCCN(c2nc3c(c(=O)[nH]c(=O)n3C)n2Cc2ccccc2Cl)C1 (configuration not stated),-10.9%,-2.8%,-21.6%,.,-7.6%,.,3.8%,-21.7%
CCOc1ccc(CN2CCNC(=O)C2CC(=O)NC2CCOCC2)cc1 (configuration not stated),-0.6%,.,7.4%,?,.,16.1%,1.1%,-15.5%
Cc1nn(-c2ccccc2)c2c1C1(C(=O)Nc3ccccc31)N1C(=N2)Sc2ccccc21 (configuration not stated),0.4%,-8.1%,-17.8%,-21.8%,-1.9%,?,1.4%,0.0%
CCN1CC(CN(C)Cc2nc(Cc3ccccc3)no2)CC1=O (configuration not stated),0.1%,.,3.1%,-6.3%[46.1 µM],.,?,14.0%,-0.1%
CC(=O)c1ccc(N2Cc3ccccc3C3(CCOCC3)C2=N)cc1,15.6%,.,2.1%,.,.,.,-22.6%,2.6%
Cc1ccc(S(=O)(=O)N2CCN(c3ccccc3)CC2)cc1C,1.1%,.,4.3%,-22.4%,.,?,3.7%,3.0%
CCN(CC)C(=O)Cn1cc(S(=O)(=O)CC(=O)Nc2ccccc2F)c2ccccc21,.,.,.,-0.9%,.,20.1%,2.3%,-6.6%
COc1ccc(S(=O)(=O)Nc2ccc(S(=O)(=O)N3CCCCC3)cc2)cc1,0.9%,-4.2%,-5.4%,3.6%,-0.4%,?,0.5%,45.6%[activator]
CNC(=O)/C(=C\C=C\c1ccccc1)NC(=O)c1ccc([N+](=O)[O-])cc1,-5.4%,-10.6%,-21.0%,-2.9%,1.7%,7.3%,-19.1%,21.4%
Cc1onc(-c2c(F)cccc2Cl)c1C(=O)NCc1ccco1,-9.3%,-3.4%,?,6.8%,8.7%,9.3%,2.6%,-18.1%
COC(=O)c1cc2c(=O)n3ccccc3nc2n(Cc2cccnc2)c1=N,.,.,5.8%,-13.8%,.,-9.2%,14.3%,3.0%
Cc1ccc2c(c1)c(N=Nc1ccc([N+](=O)[O-])cc1)c(O)n2C,1.4%,.,-1.0%,3.9%,.,?,1.0%,2.4%
COc1cccc(-c2ccc3c(N)c(C(=O)Nc4ccc(C)c(F)c4)sc3n2)c1,.,-21.1%,.,19.5%[46.1 µM],?,-18.0%[46.1 µM],.,-1.6%
O=C(NCCCN1CCCCC1)c1[nH]c2ccccc2c1Sc1ccc(Cl)cc1,.,-3.6%,.,?,-3.9%,2.9%[46.1 µM],.,-26.8%
Cc1ccc(-n2c(C(C)C)nc3oc4ccccc4c(=O)c3c2=O)cc1,3.1%,.,-60.4%,.,.,.,-25.9%,50.7%[activator]
CC(C)(C)C(=O)NC1=NCCS1,2.6%,0.3%,0.0%,7.2%,1.9%,?,7.2%,-17.1%
O=C(CCCOc1ccc(Cl)cc1Cl)N/N=C\C1CCCCC1,-1.7%,-8.2%,13.8%,-4.2%,-7.7%,11.6%,-2.3%,.
O=C(O)CCCN1C(=O)c2cccc3cccc(c23)C1=O,1.7%,.,-15.1%,.,.,.,-0.4%,3.6%
COc1ccc(-n2c(C)cc(SC)c(C(C)=O)c2=S)cc1,1.9%,-3.8%,7.7%,-1.0%,-7.2%,?,1.1%,1.6%
O=C1NC(=Nc2ccccc2)c2c1cccc2[N+](=O)[O-],6.0%,2.1%,4.6%,6.4%,6.2%,3.2%,.,2.1%
COc1ccc(Br)cc1CNC(=O)CCN1C(=O)COc2ccccc21,0.2%,2.9%,-20.7%,0.4%,-9.3%,1.7%,1.7%,.

# More results:
SMILES,SARS PLP yeast,Cruzain Triton,NS1 inh,LASV entry inh,Cruzain noTriton,MARV entry inh,RE007 growth inh,2A StopGo
CS(=O)(=O)N1CCCC(C(=O)N2CCc3ccccc3C2)C1 (configuration not stated),-5.6%,1.6%,-2.1%,-2.8%,0.1%,15.5%,7.6%,.
COc1ccccc1/C=N/NC(=O)CC(=O)NCCc1ccccc1,.,.,.,2.2%,.,7.1%[46.1 µM],-1.7%,-18.5%
C=CCNc1nc2ccccc2nc1NS(=O)(=O)c1ccc(Br)cc1,-4.6%,.,-50.4%,-3.1%[46.1 µM],.,-0.6%[46.1 µM],-22.5%,-26.1%
Cc1ccc(N(Cc2ccccc2)C(=O)c2ccc(F)c(S(=O)(=O)N3CCOCC3)c2)cc1,-1.8%,.,.,-27.3%,.,?,16.4%,32.4%[activator]
COc1ccc(-c2csc(N3N=C(C)C(C)C3=O)n2)cc1 (configuration not stated),-5.3%,.,.,0.0%,.,28.4%[46.1 µM],-3.4%,31.1%[activator]
CSc1cccc(-n2c(C)cc(C(N)=O)c2C)c1,-0.1%,-1.8%,-6.2%,?,-2.8%,1.9%[46.1 µM],5.3%,-5.0%
COc1ccc(S(=O)(=O)NC2CC3CCC2C3)cc1 (configuration not stated),-15.4%,.,-106.7%,4.4%[46.1 µM],.,-8.7%[46.1 µM],20.3%,52.9%[activator]
CCC(=O)N1CCc2cc(S(=O)(=O)N(C)c3cccc(C)c3)ccc21,.,-1.5%,.,10.4%[46.1 µM],2.6%,3.1%[46.1 µM],.,-25.8%
COc1cccc(NC(=O)N2C3CCCC2CC(NC(=O)C2CC2)C3)c1 (configuration not stated),15.4%,.,16.2%,-5.6%[46.1 µM],.,-16.7%[46.1 µM],4.4%,1.6%
O=C(NCc1ccco1)C1CC(c2ccccc2O)=NO1 (configuration not stated),-1.4%,.,0.0%,?,.,?,4.5%,13.6%
N#CC(c1ccc(F)cc1)c1ccc(C(=O)c2ccc(F)cc2)cc1 (configuration not stated),-6.5%,-4.4%,12.3%,?,-6.6%,?,-9.9%,?
O=C(CCCn1c(=O)[nH]c2ccc(Br)cc2c1=O)N1CCN(c2cccc(Cl)c2)CC1,.,-6.3%,.,-24.7%[46.1 µM],7.5%,?,.,-1.3%
CC(=O)OC1CC(OC2C(O)CC(OC3C(O)CC(OC4CCC5(C)C(CCC6C5CCC5(C)C(C7=CC(=O)OC7)CCC65O)C4)OC3C)OC2C)OC(C)C1OC1OC(CO)C(O)C(O)C1O (configuration not stated),.,.,.,0.1µM*,.,?,-7.8%,0.0%
O=[N+]([O-])c1ccc(-c2c[nH]c(=S)[nH]2)cc1,-0.8%,.,?,.,.,.,17.3%,8.1%
CC(=O)Nc1ccc(NC(=O)C(C)OC(=O)c2ccccc2Sc2ccccc2C#N)cc1 (configuration not stated),-3.3%,-3.4%,15.8%,-2.8%,7.4%,-4.7%,-5.1%,14.3%
CNC(=S)NNC(=O)c1cccn(Cc2ccc(Cl)c(Cl)c2)c1=O,10.3%,-2.6%,0.9%,-1.7%,-10.8%,-15.3%,21.4%,-13.7%
CC1CCN(S(=O)(=O)c2ccc3c(c2)CCN3C(=O)Nc2ccc(Br)cc2)CC1,.,-1.5%,.,?,8.1%,?,.,12.6%
O=C(NC(NC(=O)c1ccccc1)C(=O)c1ccccc1)c1ccccc1,22.5%,0.8%,-0.9%,-22.9%,?,-13.4%,1.0%,-5.8%
CC1(C)Cc2c(ccc3ccccc23)-c2nnc(-c3cccnc3)n21,0.4%,-0.2%,3.0%,-8.2%,-1.5%,-0.5%,9.0%,.
CCOC(=O)c1ccccc1NC(=O)c1cn(-c2ccc(OC)cc2)c(=O)c2ccccc12,-12.9%,-7.0%,-3.6%,-5.4%,2.5%,?,16.0%,?
CC(=O)NCCc1nc2ccccc2n1CCOc1ccccc1,-2.7%,.,-2.0%,.,.,.,3.3%,-18.1%
Oc1ccccc1/C=N/Nc1cccc2cccnc12,-14.2%,-2.4%,-5.7%,-39.8%,-11.3%,?,?,14.5%
CCCCOC(=O)Sc1nc2ccccc2o1,-17.3%,-0.4%,-190.5%,-13.1%,2.7%,-12.4%,-16.2%,18.2%
COC(=O)[C@H](Cc1ccccc1)N(C)S(=O)(=O)c1cccc(S(=O)(=O)N(C)[C@@H](Cc2ccccc2)C(=O)OC)c1,8.3%,.,18.1%,.,.,.,-4.9%,-6.4%
Nn1c(=S)[nH]c2sc3c(c2c1=O)CCCC3,.,.,.,?,.,3.0%[46.1 µM],-5.8%,14.4%

# Remaining list, next part
SMILES,SARS PLP yeast,Cruzain Triton,NS1 inh,LASV entry inh,Cruzain noTriton,MARV entry inh,RE007 growth inh,2A StopGo
COc1cc(NC(=O)CSc2nc3ccccc3cc2Cc2ccccc2)cc(OC)c1,3.4%,0.1%,5.6%,?,31.6µM*,?,12.2%,0.6%
S=c1nc(C2CCCCC2)[nH][nH]1,8.1%,7.1%,5.1%,23.8%,-0.7%,11.5%,3.5%,9.4%
O=S1(=O)CC/C(=N/Nc2ccc(C(F)(F)F)cn2)c2cc(F)ccc21,0.1%,.,-4.2%,-18.2%,.,6.7%[46.1 µM],-14.1%,5.7%
CC(=O)Nc1ccc(Nc2nc3c(S(=O)(=O)c4cccc(Cl)c4)nnn3c3ccsc23)cc1,.,-0.4%,.,9.5%[46.1 µM],10.6%,.,.,-6.6%
CCOC(=O)C1=Nc2ccccc2/C1=C\c1c(O)n(C)c(=O)n(C)c1=O,0.1%,.,-4.2%,?,.,9.0%[46.1 µM],6.4%,?
COc1ccc(S(=O)(=O)n2nc(C)c(S(=O)(=O)N3CCC(C)CC3)c2C)cc1OC,.,-0.2%,.,-0.5%[46.1 µM],-2.3%,.,.,23.9%
COc1ccc(OC)c(C(C(=O)NCc2ccco2)N(C(=O)Cn2nnc3ccccc32)C2CC2)c1 (configuration not stated),-6.9%,-2.3%,1.4%,-20.1%,-8.1%,4.4%,23.9%,1.4%

# Hits appear at their usual frequency (roughly 4.7% active in at least one column).
